# Screening results deposited in PubChem by National Center for Advancing Translational Sciences (NCATS).
# Menin-MLL FL inh: menin-MLL binding inhibition, fluorescein peptide; Fluorescence polarization, fluorescein-MLL peptide displacement from menin; FP activity change, % at 61.4 µM; 290,000 tested, under 10 active; AID 1766; inconclusive = falling polarisation curve, or a change in total fluorescence; inactive = total fluorescence flat and polarisation flat or rising; no compound was filed as active; the % refers to the polarisation; negative = inhibition;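 also: % of control where 0% means no effect; inhibitors lower the polarisation; unlabelled MLL peptide was the positive control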
# TRPML1 inh: human mucolipin-1 channel inhibition | TRPML1-inducible cells, Ca2+ dye fluorescence, FDSS; hits give low values; inhibition of EC80 agonist-evoked calcium signal | AID 624415 | Q9GZU1 | 0.02% of 390,000 active | activity change, negative = inhibition, % (test concentration not listed); in the data active means activity change below about -50%; inconclusive means about -30% to -50%; inactive means above about -30%;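 also: stimulus is agonist 54-4 at its EC80 concentration; % is scaled to controls: 0 for no effect and ±100 for the full control effect; compound concentration not given in the record; the text of the record puts the active cut at -80%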
# Target sequence (Q9GZU1 whole entry, looked up): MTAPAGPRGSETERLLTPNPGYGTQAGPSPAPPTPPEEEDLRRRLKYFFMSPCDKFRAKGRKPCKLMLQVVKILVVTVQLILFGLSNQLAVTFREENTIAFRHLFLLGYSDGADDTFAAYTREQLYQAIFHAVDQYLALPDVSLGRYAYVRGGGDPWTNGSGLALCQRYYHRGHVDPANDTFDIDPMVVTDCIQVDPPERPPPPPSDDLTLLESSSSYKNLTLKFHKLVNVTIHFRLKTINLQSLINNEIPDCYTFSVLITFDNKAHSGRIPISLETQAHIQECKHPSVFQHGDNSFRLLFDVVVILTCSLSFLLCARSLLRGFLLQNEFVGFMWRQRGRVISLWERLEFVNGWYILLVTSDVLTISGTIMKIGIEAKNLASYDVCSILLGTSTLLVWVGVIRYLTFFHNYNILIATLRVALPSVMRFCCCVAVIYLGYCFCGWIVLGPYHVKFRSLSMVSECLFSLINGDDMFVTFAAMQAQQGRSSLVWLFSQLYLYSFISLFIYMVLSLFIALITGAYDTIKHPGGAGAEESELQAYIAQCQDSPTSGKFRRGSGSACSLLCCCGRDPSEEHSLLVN
#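 Calcium fluorescence in TRPML1-DL cells induced overnight with Tet: a 110 s read after compound pin addition, then a 110 s antagonist read after challenge with 54-4 at 4 uM final (EC80).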
# TRPML1 agonist: agonists of human TRPML1 channel; 0.12% of 410,000 active; activation, % (no concentration beside the values); TRPML1-expressing cells, Ca2+ dye fluorescence, FDSS; host cell line not named in the record; reference of the full effect not given here; Q9GZU1; in the data active = activation above about 50%; inconclusive = about 30% to 50%; inactive = below about 30%; also: 0% is about no effect; the text of the record puts the active cut at 80%
#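 Calcium fluorescence on an FDSS kinetic reader gave the read-out. Tet-induced TRPML1-DL cells were plated overnight, dye-loaded (Ca8 with quencher, 45-90 min, room temperature, dark), then read 110 s after compound addition, and again 110 s after 4uM final 54-4 (EC80).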
# ClpP mod: qHTS Assay for Activators of ClpP; ATP-dependent Clp protease proteolytic subunit (Bacillus subtilis (strain 168)), P80244; purified B. subtilis ClpP, FRET peptide cleavage, 20 min; Potency, µM (top dose mostly 57.5 µM), inactives show top-dose activity change, negative = active; 1.9% of 340,000 active; AID 651965, 2013; active = well fitted falling curve with a large enough effect; inconclusive = small, poorly fitted or top-dose-only effect; inactive = no such curve, though single readings can be large or run the other way; also: potency is read from the fitted curve at half-maximal effect; the source files actives as falling curves though it sought activators and does not explain the sign; nearly all actives have a fitted effect of over 65% in size; many hits overshoot -100%
# Target sequence (P80244 whole entry, looked up): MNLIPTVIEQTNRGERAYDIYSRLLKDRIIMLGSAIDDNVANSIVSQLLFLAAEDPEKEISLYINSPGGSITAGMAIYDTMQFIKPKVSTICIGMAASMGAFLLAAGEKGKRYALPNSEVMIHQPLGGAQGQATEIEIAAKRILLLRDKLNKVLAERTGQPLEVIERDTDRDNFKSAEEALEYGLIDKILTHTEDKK
#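 ClpP 10 microg/mL final, pH 8 Tris/KCl buffer with BSA, glycerol, Tween-20; compound pinned in; FRET-FV substrate; RT 20 min; Ex320/Em430; ΔFRET vs ADEP 5.8 microM, DMSO, no enzyme.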
# PINK1 expr mod: PINK1 expression modulation | AID 624263 | 0.2% of 410,000 active | PINK1 immunofluorescence, high-content cytometry, 24 h | Potency, µM (titrated, usually from 76.6 µM), for inactives: at the highest dose activation (PINK1 increase), actives largely listed as activators; active = well fitted activation curve with a large enough effect; inconclusive = small, poorly fitted or top-dose-only effect; inactive = flat fitted curve, though single readings scatter; cell line not stated here;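 also: potency is read from the fitted curve at half-maximal effect; % of control where 0% means no effect; nearly all actives have a fitted effect of over 65% in size; a mitochondrial uncoupler was the plate control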
#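 Measures PINK1 amount and localization on or inside mitochondria by immunofluorescence. Stable cells get compounds at 5 concentrations for 24 hours before fixation and staining; CCCP controls included.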
# TRPV1 potentiator: enhances activation of the human vanilloid receptor TRPV1; AID 540277; Q8NER1; potentiation, % at 8.33 µM; 0.02% of 320,000 active; TRPV1-expressing cells, Fluo-8 calcium influx, capsaicin EC20 potentiation; host cell line not named in the record; control for the full effect not named in the record; active means potentiation above 80%; inconclusive means 30% to 80%; inactive means below 30%; also: 0% is about no effect
#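 TRPV1-expressing cells were cultured overnight at 35.5C and loaded with Fluo-8 calcium dye for 40 to 90 min at room temperature. After a 10 s baseline, compound was added and calcium influx was read kinetically for 3 min (ex 480/em 520 nm).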
# Sfp PPTase inh: inhibitors of Bacillus subtilis Sfp phosphopantetheinyl transferase | Biochemical Sfp PPTase activity, qHTS | Potency, µM, without a hit: max response, negative = inhibition, actives largely listed as inhibitors | 3.5% of 310,000 active | Q9F4F7; active = well fitted inhibition curve with a large enough effect; inconclusive = small, poorly fitted or top-dose-only effect, or another doubt; inactive = no such curve, though single readings can be large or run the other way;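 also: the enzyme is Sfp with the accession as filed and its product quenches rhodamine fluorescence; potency is read from the fitted curve at half-maximal effect; 0% = enzyme reaction without inhibitor and -100% = no enzyme wells; top concentration of the series not given in the record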
#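 Compounds were incubated with enzyme (final 15 nM) for 15 min at room temperature before substrate addition started the reaction. Fluorescence at 525 nm excitation, 598 nm emission was recorded immediately and after 30 minutes.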
# An asterisk follows results filed as active; ? = inconclusive; / = not tested or not shown; & = joins results of further samples; [ ] = remark or other dose.
structure,Menin-MLL FL inh,TRPML1 inh,TRPML1 agonist,ClpP mod,PINK1 expr mod,TRPV1 potentiator,Sfp PPTase inh
O=C(CCN1C(=O)COc2ccccc21)NCCCN1CCN(c2ccc(F)cc2)CC1,3.9,13.7,0.3,-1.0%,-4.6%[38.3 µM],2.3,16.2%
CN(CC(=O)Nc1ccccc1C(F)(F)F)C(=O)CC1OC(=O)c2ccccc21 (stereo not drawn),2.8,-12.0,-0.2,0.8%,2.7%,3.4,-2.3%
Cc1cc(C)n2c(SCC(O)=C(C#N)c3nc4ccccc4[nH]3)nnc2n1,/,-6.3,-0.4,/,1.2%,/,/
COc1ccc(C(=O)Nc2ccc(OCc3ccccc3)cc2)cc1[N+](=O)[O-],1.0,16.0,0.2,2.0%,/,-10.9,-3.1%
CC(=O)Oc1ccc(-c2nc3ccccc3c(=O)o2)cc1,-2.5,-3.0,0.2,-1.9%,0.1%,-6.2,11.7%
CC(/C=C/c1cccc([N+](=O)[O-])c1)=N\NC(=O)c1ccncc1,1.8,-11.6,0.7,-1.3%,0.2%,7.5,-6.9%
CC1SCC(=O)N(CC(=O)NC2CCCCC2)C1=O (stereo not drawn),-3.1,17.3,0.6,-0.1%,-0.1%,3.3,13.1%
O=C(CCN1C(=O)c2ccccc2C1=O)N(CCO)Cc1ccccc1,4.9,5.3,-0.2,1.6%,0.4%,-5.4,-2.6%
N#Cc1csc(CCNC(=O)c2ccccc2)n1,/,15.1,-0.5,1.1%,-0.8%,/,/
Cc1cc(C)c(NC(=O)COC(=O)c2nc3nccc(C)n3n2)c(Cl)c1,/,1.4,0.0,-2.9%,1.3%,-7.6,/
Cc1cccc(Cn2nnc3c(=O)[nH]c(C4CCN(C(=O)c5ccccc5F)CC4)nc32)c1,/,-24.9,-0.5,-4.5%,-0.4%,/,/
CCc1cccc(N=c2c([N+](=O)[O-])nn(-c3ccc(Cl)cc3)n2O)c1,6.9,25.5,0.8,1.7%,-4.2%[38.3 µM],-4.6,4.1%
CN(C)c1ccc(/C=N/NC(=O)CNC(=O)c2ccco2)cc1,3.1,-13.0,-0.3,/,-0.6%,-6.4,13.8%
CC(C)(C)C(=O)Nc1ccccc1C(=O)Nc1ccncc1,3.2,-4.9,0.4,-3.4%,0.1%,5.7,24.0%
O=C(Nc1cc(Cl)cc(Cl)c1)C1CC(=O)N(C2CCCC2)C1 (stereo not drawn),/,-9.1,0.1,0.3%,18.9%,-29.0,/
CC(C)CC1CCCCC1OC(=O)CN1CCCCC1 (stereo not drawn),-2.4,18.5,0.3,/,11.4%,4.6,19.8%
Cc1cccc(NC(=O)CSc2ccc(-c3ccccn3)nn2)c1,/,2.8,0.3,1.1%,0.4%,/,/
Cc1ccc(NC(=O)Nc2nnc(Cc3ccc(F)cc3)s2)cc1,1.8,-8.7,1.9,/,8.1%,6.2,7.2%
C[C@@H]1CN([C@@H](C)CO)C(=O)c2cc(C#CC(C)(C)O)cnc2O[C@@H]1CN(C)C(=O)c1ccccc1F,/,6.2,0.2,-11.9%,2.1%,/,/
Cc1ccc2c(c1)c1c3n2CC(=C2C(=O)OC(C)(C)OC2=O)NC3CCC1 (stereo not drawn),0.7,20.4,0.7,-6.4%,-1.2%[38.3 µM],-20.6,-55.7%
O=C(COC(=O)Cc1cccs1)Nc1ccccc1F,1.5,-1.9,-1.2,0.0%,0.8%,3.0,7.7%
Cn1c(=O)[nH]c(NC2CCCCC2)c(N=O)c1=O,2.8,-0.8,0.1,-0.8%,1.0%,22.7,-3.2%
CN(C)c1cccc(O)c1,/,-6.1,0.3,-6.8%,-0.6%,-1.1,/
CCOC(=O)c1[nH]c2ccc(Cl)cc2c1-c1ccccc1,3.0,24.5,1.1,?,17.1%,-3.0,4.1%
COc1ccc(S(=O)(=O)N(C)c2ccc(OCC(=O)Nc3cc(C)on3)cc2)cc1,-8.5,0.8,-0.3,0.4%,-0.8%,-9.0,11.9%
CCN(CC)CCCN1C(=O)c2oc3ccccc3c(=O)c2C1c1cccs1 (stereo not drawn),?,/,/,/,/,-2.5,2.8%
Cc1ccccc1CN(C)CC(=O)NC(C)CCc1ccccc1 (stereo not drawn),-1.2,44.4,2.3,/,-0.7%,-11.9,15.8%
C=CCOc1c(CNc2nccs2)cccc1OCC,1.8,-16.3,0.9,0.9%,?,2.0,3.6%
COCCCNC(=S)NCCCNc1nc2cc(C)cc(C)c2cc1C#N,6.3,-0.3,1.3,/,-1.5%,4.7,-13.5%
CCOC(=O)c1c(NC(=O)C(C)Sc2cn(CCNC(=O)c3ccc(OC)c(OC)c3)c3ccccc23)sc2c1CCC2 (stereo not drawn),/,38.0,0.1,0.7%,1.8%,/,/
O=C(NN1CCOCC1)c1cn(-c2ccccc2)nc1-c1cccs1,4.3,/,/,-16.3%,2.0%,1.9,0.2%
CCC(c1nnnn1C1CCCC1)N1CCN(c2cccc(OC)c2)CC1 (stereo not drawn),2.4,-26.9,1.7,/,?,8.8,-4.0%
CCN1CCN(C(=O)c2ccc3c(c2)N(Cc2ccccc2)C(=O)c2ccccc2S3(=O)=O)CC1,-8.2,31.5&-19.2,-0.3&2.1,-0.7%&-6.6%,3.5%&0.6%,-7.6,-1.2%
CC(C)Oc1ccc(-c2nn(-c3ccccc3)cc2/C=c2\sc3ncnn3c2=O)cc1,?,/,/,/,/,25.1,-4.6%
Cc1c(CC(Cl)(Cl)Cl)c2c(n1O)CC(C)(C)CC2=O,1.7,0.3,0.6,1.0%,2.6%,-4.9,7.7%
N#Cc1ccccc1CSCCNC(=O)Cc1c(F)cccc1Cl,-3.7,31.1,5.2,-0.4%,-0.6%,-11.6,0.7%
O=c1[nH]c(/C=C\c2cccc(C(F)(F)F)c2)nc(O)c1[N+](=O)[O-],-0.1,-12.4,1.1,-2.0%,2.5%,2.3,2.0%
CCN1C(=O)C(=O)N(CC(=O)c2[nH]c(C)c(C(C)=O)c2C)C1=O,/,-21.1,0.0,/,-0.9%,0.0,/
COc1ccc(S(=O)(=O)NCCc2c(C)nn(C)c2Oc2ccccc2)cc1,4.7,30.9,0.5,-0.8%,3.4%,15.6,-2.2%
COc1cc2c(C(=O)N3CCN(c4ccc(C)cc4)C(C)C3)cn(CC(C)C)c(=O)c2cc1OC (stereo not drawn),/,-11.3,3.6,-9.2%,2.2%,/,/
Cn1nc2c(c1C(=O)N1CCCC(C(=O)c3cc(F)ccc3F)C1)CCCC2 (stereo not drawn),-0.4,9.2,1.1,-2.7%,1.7%,-8.2,0.9%
COC(=O)c1ccc(N2C(=O)c3ccc(OC)c(OC)c3C2=O)cc1,3.5,-5.1,-0.4,-2.8%,-0.1%,15.0,0.5%
CCCn1c(COc2ccccc2OC)nc2ccccc21,1.1,19.5,1.5,/,0.4%,7.3,14.0%
CC1=C(C(=O)N(C)C)CC(CC(=O)NCc2cccc3ccccc23)C(=O)N1CCCN1CCCC1=O (stereo not drawn),/,-3.4,0.0,-1.1%,-2.3%,/,/
CCOc1ccc(N2CSC3=C(C#N)C(c4ccco4)CC(=O)N3C2)cc1 (stereo not drawn),?,-13.7,1.2,-0.9%,?,8.0,3.16µM*
CCOc1cc2c(cc1OCC)C(c1c(F)cccc1Cl)CC(=O)N2 (stereo not drawn),/,17.6,1.7,-0.2%,-0.7%,/,/
NC(=O)c1nsc(C(=O)N(CC(=O)NCc2ccco2)c2ccccc2F)c1N,-0.1,2.4,-0.2,-29.8%,1.5%[38.3 µM],?,12.4%
COc1ccc(-n2c(SCC(=O)OC(C)C)nnc2-c2ccccn2)cc1,0.5,2.4,-0.4,-1.4%,-0.3%,-6.4,2.7%
O=C(CN1CCCCCC1)OCCN=C1NS(=O)(=O)c2ccccc21,1.4,-12.7,-0.7,2.0%,1.7%,17.7,22.2%
COc1ccc(OC)c2c1C(=O)C(Cl)=C(Cl)C2=O,4.7,-10.4,4.8,-0.3%,-3.3%,-2.5,0.501µM*
CCOc1ccc(CCNC(=O)COC(=O)C2CC2)cc1OCC,/,1.0,-0.3,1.6%,0.8%,-4.5,/
CCc1nc2c(OCc3ccccc3)cccn2c1N(Cc1ccccc1)C(C)=O,/,/,-1.2,-1.4%,-0.6%,/,/
O=S(=O)(NCc1cn2ccsc2n1)c1cccs1,0.5,-14.5,-0.5,-0.9%,-2.7%,14.2,0.0%
Cc1nc(/C=C/c2ccccc2)cc(/C=C/c2ccccc2)n1,-0.3,-12.4,0.7,14.1µM*,12.8%,-3.2,-24.5%
COc1ccc(-c2cc(C(=O)OCC(=O)Nc3cc(C)on3)c3ccccc3n2)cc1OC,6.3,-2.5,-2.0,104.6%,8.0%,2.4,-0.5%
COc1cccc(-c2nn(C)c3sc(C(=O)N4CCN(c5cccc(C(F)(F)F)c5)CC4)cc23)c1,/,20.8,0.2,-24.5%,3.1%,/,/
COc1ccc2c(c1)CCc1sc(NC(=O)c3ccco3)nc1-2,0.0,5.7,-0.8,-5.0%,1.5%,1.4,?
CCn1c(C(=O)O)c(CC(=O)NC2CCCCCC2)c2ccccc21,3.7,-6.6,0.0,-1.0%,-3.3%,-9.1,-8.3%
Cc1nc2c(OCc3ccc(C(F)(F)F)cc3)cccn2c1N(C)Cc1cccs1,/,-9.1,0.1,-25.7%,?,/,/
N#Cc1ccccc1NC(=O)c1ccc2c(c1)OCCO2,-2.0,9.8,0.0,/,0.3%,1.1,?

# Remaining list, next part:
structure,Menin-MLL FL inh,TRPML1 inh,TRPML1 agonist,ClpP mod,PINK1 expr mod,TRPV1 potentiator,Sfp PPTase inh
Nc1nonc1C(=O)OCC(=O)N1CCOCC1,-0.4,1.8,-0.6,1.2%,1.4%,10.8,14.6%
Cc1cc(=O)oc2cc(NS(=O)(=O)c3ccc(F)cc3)ccc12,2.5,0.1,0.1,/,1.7%,4.3,12.6%
CCCn1c(=N)n(CC(=O)OCC)c2ccccc21,3.5,-6.2,0.4,0.8%,0.3%,-37.0,2.5%
COc1ccc(CNC(=O)Nc2ccc3c(c2)N(C)C(=O)CS3)cc1,?,22.3,-0.6,-0.3%,0.7%,-8.4,-16.0%
COC(=O)c1sccc1NC(=O)C1CC=CCC1C(=O)O (stereo not drawn),3.2,4.5,0.3,-8.3%,1.2%,?,13.0%
COc1ccc(C2CC(c3cccs3)=NN2c2ccccc2)cc1 (stereo not drawn),11.3,-15.0,-0.6,0.7%,5.2%,5.2,-11.4%
COc1cc(/C=N/NC(=S)Nc2cccc(S(=O)(=O)N(C)C)c2)cc(OC)c1O,3.0,-5.2,-0.4,-1.2%,2.6%,-4.3,-1.8%
